Vif TR-FRET: HIV-1 Vif–A3G interaction blockers – biochemical, TR-FRET, GST-Vif 1-94, biotin-A3G peptide, dose response retest, primary screen (AID 1117319); 260,000 compounds, 0.57% hits; TR-FRET GST-Vif / biotin-A3G peptide binding; higher % means a stronger effect; test concentration not given here; strong numbers were not always called active; inhibition, %, or IC50 in µM where a hit was titrated;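 active = above the screen mean plus three standard deviations and confirmed in dose response; inconclusive = results disagree or hit not tested in dose response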;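 also: Vif residues 1-94 fused to GST binding biotinylated APOBEC3G peptide 110-148; 0% = full assay without inhibitor and 100% = GST in place of GST-Vif; retest series ran down from 100 µM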
HNF4A DNA FP: change in binding of human HNF4 alpha to DNA. 360,000 compounds, 0.3% hits. HNF4a-FITC DNA binding, fluorescence polarization, 1 h. activity change, % at 10 µM. P41235; in the data active = activity change above about 30%, passing the limit was not always enough;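 also: controls were the assay level and a saturating level of protein; the project sought stronger binding though the title names inhibitors; some compounds called inactive have numbers as strong as hits; positive values seem to mean higher polarization but the record does not say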
Target sequence (P41235 whole entry, looked up): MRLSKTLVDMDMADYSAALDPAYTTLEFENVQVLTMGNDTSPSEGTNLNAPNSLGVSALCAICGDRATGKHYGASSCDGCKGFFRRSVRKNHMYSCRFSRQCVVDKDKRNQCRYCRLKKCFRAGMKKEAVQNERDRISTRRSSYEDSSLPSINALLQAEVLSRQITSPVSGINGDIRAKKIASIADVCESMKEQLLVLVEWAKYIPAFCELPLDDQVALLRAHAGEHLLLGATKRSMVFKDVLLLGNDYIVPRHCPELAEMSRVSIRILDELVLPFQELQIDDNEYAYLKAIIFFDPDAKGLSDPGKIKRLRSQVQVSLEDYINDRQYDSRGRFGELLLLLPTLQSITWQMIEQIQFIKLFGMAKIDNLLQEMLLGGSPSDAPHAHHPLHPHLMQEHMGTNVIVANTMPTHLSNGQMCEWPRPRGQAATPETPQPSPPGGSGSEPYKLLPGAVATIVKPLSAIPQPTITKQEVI
LANA-H2B inh: blocks KSHV LANA binding to histone H2A/H2B; Q9QR71; cell-free LANA-H2A/H2B peptide, fluorescence polarization; inhibition, % (concentration not given with the values); 320,000 compounds, 0.6% hits; in the data active = inhibition mostly above about 10%, no sharp cut-off; inactive = mostly below about 6.7%;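 also: stock transfer was 7.5 nL into about 10 µL; 0% = median of vehicle wells and 100% = median of positive control wells; one replicate is shown; the record names a cut of 25% in any replicate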
B2AR ag: human beta-2 adrenergic receptor agonism by FAP | 340,000 compounds, 0.43% hits | AID 504454 | Am2.2-beta2AR cells, FAP receptor internalization, flow cytometry; reference of the scale not given here | response, % (concentration not given with the values) | P07550;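 active = response above a set limit, near 3 SD of response in nonfluorescent compounds, cut at about 42% in these data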;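 also: stock transfer was 100 nL into about 11 µL; a reference agonist was the positive control; negative values mostly stem from fluorescent compounds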
UCH37 DUB inh: human UCH37 deubiquitinating enzyme inhibition. AID 588478. purified proteasome/UCH37, Ub-AMC cleavage fluorescence. inhibition, % (no concentration beside the values). 330,000 compounds, 0.33% hits;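 active = mean of two replicates above 20%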;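 also: 0% = compound-free wells with enzyme and 100% = wells lacking proteasome; stock transfer was 100 nL into about 20 µL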
Target sequence (Q9Y5K5 whole entry, looked up): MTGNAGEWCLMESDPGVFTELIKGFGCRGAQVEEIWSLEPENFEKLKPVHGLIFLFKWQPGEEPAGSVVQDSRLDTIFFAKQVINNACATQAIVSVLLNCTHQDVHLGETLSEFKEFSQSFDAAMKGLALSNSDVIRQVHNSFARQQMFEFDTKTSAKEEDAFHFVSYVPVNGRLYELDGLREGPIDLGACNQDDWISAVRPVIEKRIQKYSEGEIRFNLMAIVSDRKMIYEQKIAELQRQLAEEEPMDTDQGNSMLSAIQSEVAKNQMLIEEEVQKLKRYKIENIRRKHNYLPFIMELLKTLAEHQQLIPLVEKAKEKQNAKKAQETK
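Material: Human UCH37 enzyme supplied as purified proteasome complex | Schedule: 30 min compound-proteasome preincubation then 25 min substrate reaction, room temperature | Detection: AMC fluorescence from Ub-AMC cleavage, excitation 355 nm, emission 460 nm | Benchmarks: Wells without proteasome as full block, compound-free enzyme plus substrate as uninhibited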
E coli growth: blocks Escherichia coli growth; AID 1053175; 330,000 compounds, 0.21% hits; OD600, 23 h; active compounds read low; OD600 absorbance (no concentration beside the values);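 active = OD600 absorbance below the run mean of sample wells minus 3.6 SD, in any replicate, cut at about 0.56 in these data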;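 also: stock transfer was 300 nL into about 60 µL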
Bfl-1 A1 inh: inhibitors of the anti-apoptotic protein A1, read as caspase activation; MEF A1-2A-BIM cells, Caspase-Glo 3/7 luminescence, 3 h; percent of clofoctol response, vehicle zero; caspase activation, % (concentration not given with the values); 330,000 compounds, 0.066% hits; AID 2462;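 active = over half of replicate activation scores above 10%, or exactly half above 10 with the replicate mean above 10; inconclusive = replicate mean below 10 yet half the replicates above 10; inactive = over half of replicates below 10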;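 also: wells of about 30 µL received 50 nL stock; many hits fall short of the cut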
* = called active by the depositor; i = inactive; ? = inconclusive; · = not tested or not shown; & = joins results of further samples.

Values in the order – Vif TR-FRET | HNF4A DNA FP | LANA-H2B inh | B2AR ag | UCH37 DUB inh | E coli growth | Bfl-1 A1 inh
Cc1c(C(=O)Nc2ccccc2N2CCN(C)CC2)oc2ccc(F)cc12
  5.4% | 5.2 | · | 9.9 | 0.8 | 0.677 | ·
CCOc1ccc(CCNC(=O)c2cccc(S(=O)(=O)N3CCOCC3)c2)cc1OCC
  -1.0% | 0.7 | 1.0 | 3.6 | 1.3 | 0.615 | -0.3
CN(CC(=O)Nc1ccc(F)cc1)C(=O)c1ccccc1OCc1ccc(F)cc1
  -9.4% | -3.2 | -0.9 | -4.4 | 5.4 | 0.668 | ?
CCOC(=O)C1=C(COc2ccc(C)cc2)NC(=O)NC1c1cc(C)ccc1C (stereo not drawn)
  15.7% | -3.0 | · | -2.8 | 3.8 | 0.723 | -0.6
Cn1c(CO)c(-c2ccccc2)c2cc([N+](=O)[O-])ccc21
  -3.3% | 3.7 | -3.3 | -2.3 | 4.8 | 0.708 | 0.3
O=C(c1ccccc1)C(Nc1cccc([N+](=O)[O-])c1)c1ccccc1 (stereo not drawn)
  -1.2% | 2.1 | · | 0.7 | -0.6 | 0.706 | ·
COC(=O)c1ccc(CSc2nc3c(cnn3-c3ccc(F)cc3)c(=O)[nH]2)o1
  ? | 1.8 | -1.6 | -0.2 | 3.3 | 0.756 | 0.1
CCOC(=O)C(=O)NC(C)CCc1ccccc1 (stereo not drawn)
  -9.7% | -4.3 | -0.4 | 1.7 | 2.6 | 0.742 | 1.1
Cc1cccc(NC(=O)CNC(=O)COC(=O)c2ccc(C(C)(C)C)cc2)c1C
  -6.4% | -0.2 | 3.3 | 2.5 | 5.4 | 0.699 | 0.2
CCc1ccccc1NC(=O)N1CCc2ccccc2C1
  · | -0.6 | 3.6 | -10.5 | 0.5 | 0.701 | 1.7
O=C(Nc1cccc(Cl)c1)Nc1cc(S(=O)(=O)N2CCCCC2)ccc1Cl
  10.7% | -0.6 | -2.5 | 4.6 | 1.4 | 0.638 | -0.4
O=C1C2C(c3ccccc3)C=CC(c3ccccc3)C2C(=O)N1c1ccncc1 (stereo not drawn)
  4.3% | 1.1 | 0.6 | 12.4 | 2.6 | 0.684 | 0.0
O=C(Nc1nc(-c2ccc(Cl)s2)cs1)c1cccs1
  14.0% | 4.2 | -1.4 | 9.8 | -11.7 | 0.71 | 1.0
Cc1ccccc1N=C(NOCc1ccccc1)c1nonc1N
  18.0% | -2.2 | 0.6 | -0.9 | 5.2 | 0.674 | 1.2
CC1(C)CC(NCCN2CCN(C3=CC(=C(C#N)C#N)CC(C)(C)C3)CC2)=CC(=C(C#N)C#N)C1
  8.1% | -0.1 | 2.4 | -4.8 | 4.8 | 0.72 | 0.4

Some values from above.
HNF4A DNA FP result of O=C1C2C(c3ccccc3)C=CC(c3ccccc3)C2C(=O)N1c1ccncc1 (stereo not drawn) stands at 1.1
E coli growth result of CCOC(=O)C(=O)NC(C)CCc1ccccc1 (stereo not drawn) stands at 0.742

The list goes on:
Values in the order – Vif TR-FRET | HNF4A DNA FP | LANA-H2B inh | B2AR ag | UCH37 DUB inh | E coli growth | Bfl-1 A1 inh
Cc1ccccc1NC(=O)Cc1nnc(SCC(=O)N2CCN(c3ccccc3)CC2)n1C
  6.7% | 1.4 | 1.8 | -2.3 | 2.7 | 0.704 | -0.2
CC(C)(C)c1ccc(CCC2OCC(C[N+]3(C)CCOCC3)O2)cc1 (stereo not drawn)
  -11.2% | 1.8 | 4.7 | -2.3 | 1.9 | 0.675 | -1.1
O=C(CN1CCN(Cc2ccccc2)CC1)Nc1ccccc1
  · | -4.6 | -1.7 | -6.6 | 1.2 | 0.652 | -1.6
Cc1cc(C)cc(Oc2ccc(S(=O)(=O)N3CCN(C)CC3)cn2)c1
  · | -2.5 | -0.9 | 1.4 | 4.7 | 0.69 | -0.8
O=C(CCC(=O)c1ccc(F)cc1)NCc1ccccc1C(F)(F)F
  · | 0.8 | -9.2 | -1.1 | -3.6 | 0.669 | 0.8
Cc1cnn(-c2cc(N/N=C/c3ccccc3Cl)ncn2)c1
  ? | 2.5 | -1.1 | 7.9 | · | · | -0.6
Oc1ccccc1/C=N/n1cnn(Cc2ccccc2Cl)c1=S
  4.3% | 0.6 | 1.8 | 3.7 | · | · | 0.0
COc1cc2c(cc1C1C(C#N)=C(N)OC3=C1C(=O)CC(C)(C)C3)OCO2 (stereo not drawn)
  -4.6% | 0.4 | 0.7 | -1.9 | 1.5 | 0.723 | 1.6
Cc1ccccc1-c1nc(CN2CCN(C(=O)c3ccco3)CC2)c(C)o1
  · | 4.3 | 0.4 | 1.3 | -3.6 | 0.706 | 0.6
Cc1ccc(Sc2c(C)nn(C(=O)c3cccc(S(=O)(=O)N4CCOCC4)c3)c2C)cc1
  3.6% | 5.5 | -9.9 | 3.5 | 3.6 | 0.713 | 0.1
CCC1CCc2c(sc(NC(=O)c3ccco3)c2C(N)=O)C1 (stereo not drawn)
  4.7% | 0.6 | -0.9 | -4.0 | -16.5 | 0.736 | -0.3
CN(Cc1ccc(Br)cc1)CC(O)COc1cccc(Br)c1 (stereo not drawn)
  -2.5% | 0.7 | 1.5 | 2.8 | 8.8 | 0.573 | 0.5
Cc1cccc(Cn2c(C)c(C)c3cc(C(=O)NCCN4CCOCC4)ccc32)c1
  4.7% | -2.1 | -3.7 | 7.9 | -0.7 | 0.666 | 0.5
Cc1ccc(OCCC(=O)Nc2ccc(S(=O)(=O)Nc3cc(C)nc(C)n3)cc2)cc1
  0.8% | -0.4 | -2.5 | -8.4 | 3.2 | 0.692 | 0.3
O=S(=O)(c1ccc(Br)s1)n1cccn1
  -1.0% | 5.5 | -0.8 | 1.3 | 1.9 | 0.715 | 0.4
OC(CN1CCN(c2ccccn2)CC1)Cn1c2ccc(Cl)cc2c2cc(Cl)ccc21 (stereo not drawn)
  -2.7% | -2.7 | 0.0 | 2.0 | 1.9 | 0.686 | -0.5
CC(C)CCNC(=O)NC(=O)CSc1ccc(S(=O)(=O)N2CCOCC2)cn1
  · | -1.1 | -5.3 | 1.8 | -0.6 | 0.717 | -0.1
O=[N+]([O-])c1ccc2c(c1)C(O)n1ncnc1S2 (stereo not drawn)
  -2.8% | -1.9 | -2.9 | 2.0 | 4.2 | 0.655 | -0.2
CCOC(=O)[C@H]1[C@H]2COc3cc(OC)ccc3[C@@H]2N2C(=O)c3cc(F)c(F)cc3NC(=O)[C@@]12C
  · | 1.8 | -3.0 | -3.0 | 1.2 | · | 1.0
CC(C)CC(N)C(=O)OCc1ccc([N+](=O)[O-])cc1 (stereo not drawn)
  -8.4% | 4.4 | 0.7 | -3.4 | 2.6 | 0.698 | 0.6
CCNc1nc(NCC)n2c(SC(C(=O)Nc3cc(Cl)cc(Cl)c3)c3ccccc3)nnc2n1 (stereo not drawn)
  7.0% | -0.9 | 3.6 | 5.1 | 6.1 | 0.696 | 1.2
COc1ccc(CNC(=O)[C@H](C)NC(=O)C2CCN(C(=O)[C@@H](N)CCSC)CC2)cc1
  · | 1.2 | -1.9 | 0.4 | 4.0 | 0.728 | 0.2
CCOc1ccc(OCCSc2nc(-c3ccccc3)cc(=O)[nH]2)cc1
  -4.3% | -1.0 | -1.2 | 11.4 | -0.2 | 0.671 | 0.1
CCN(CC)S(=O)(=O)c1ccc(NC(=O)COC(=O)CCc2cc(OC)c(OC)c(OC)c2)cc1
  25.7% | -1.2 | -1.8 | 1.3 | 5.4 | 0.726 | 0.7
O=C(C(=O)N1CCCCC1)c1cn(CC(=O)N2CCCCCC2)c2ccccc12
  · | 0.5 | 7.6 | 15.8 | 3.0 | 0.752 | -1.0
COc1ccc(OC)c2[nH]c(=O)c(CCNC(=O)c3ccc(S(=O)(=O)N4CCCC4)cc3)cc12
  -1.8% | -2.0 | 0.3 | -8.0 | 2.1 | 0.725 | 0.1
Cc1nn(-c2ccc(Cl)cc2)c2sc(C(=O)N3CCN(c4ccccn4)CC3)cc12
  -5.4%&-6.1% | 0.0 | 3.6 | -2.1 | 0.8 | 0.747 | 0.5
Cc1cccc(NC(=O)NNC(=O)c2c(Cl)c(C)nn2C)c1
  4.3% | -5.7 | 8.6 | -1.4 | 4.5 | 0.678 | -0.5
CC(=O)Nc1sc(NC(=O)c2ccccc2)nc1-c1cccs1
  -8.8% | -1.1 | -2.0 | -12.0 | -11.5 | 0.736 | 0.6
CCN(CC)c1ccc(/C=N/N2C(=O)c3ccccc3C2=O)c(O)c1
  19.7% | 1.1 | -2.4 | -2.2 | · | · | -0.3
COc1ccc(Cc2nnc(NC(=O)CS(=O)(=O)c3ccc(C)cc3)s2)cc1OC
  · | 2.2 | 0.0 | -0.8 | 6.5 | 0.663 | 0.3
O=C(Nc1cccc(NC(=O)c2cccc(Cl)c2)c1)c1cccnc1
  · | -1.6 | -0.5 | 5.8 | 5.9 | 0.654 | -1.9
CCc1ccccc1OCC(=O)Nc1cc(S(=O)(=O)N(CC)CC)ccc1N1CCOCC1
  4.0% | 5.5 | -4.5 | 3.2 | 1.8 | 0.705 | -0.5
O=C(CCN1C(=O)/C(=C\C=C\c2ccccc2)SC1=S)Nc1ccc(C(=O)O)cc1
  · | 3.8 | -3.2 | 2.6 | 6.5 | 0.701 | 2.0
CC(C)n1c(Oc2ccc(F)cc2)nc2c1c(=O)n(C)c(=O)n2C
  -2.5% | -4.6 | 4.9 | -2.7 | -0.5 | 0.663 | -0.2
CC(NC(=O)C1CCN(S(=O)(=O)c2cnc[nH]2)CC1)c1ccccc1 (stereo not drawn)
  3.0% | 1.6 | · | -3.4 | -0.5 | 0.701 | -0.5
COC(=O)c1ccc(/C=C/c2c(-c3ccc(OC)cc3)oc3ccccc23)cc1
  · | 0.6 | -1.4 | 9.8 | · | · | 0.6
Nc1ccc(C(=O)Nc2ccccc2C(=O)O)cc1
  17.4% | -0.4 | 4.0 | -1.3 | 5.7 | 0.681 | -10.6
COc1cc(-c2nc(-c3ccncc3)no2)cc(OC)c1OC
  2.3% | 1.4 | -6.7 | 4.0 | -1.4 | 0.64 | -0.5
COc1ccc(C2CC(c3ccccc3F)=NN2c2ccc(S(N)(=O)=O)cc2)cc1 (stereo not drawn)
  -0.4% | -3.1 | · | -6.2 | i | 0.697 | ·
CC(NC(=O)COC(=O)c1ccco1)c1ccccc1 (stereo not drawn)
  16.3% | 1.8 | 1.5 | 3.8 | 2.8 | 0.67 | -0.4
CN(CC(=O)Nc1ccccc1Cl)C(=O)COC(=O)c1ccc(=O)n(Cc2ccccc2)n1
  4.8% | 1.8 | · | -3.9 | 2.7 | 0.689 | -0.5
CC1CN(S(=O)(=O)c2cc(C(=O)NC(C)c3cccnc3)ccc2Cl)CC(C)O1 (stereo not drawn)
  · | 0.4 | 3.1 | -9.2 | 0.5 | 0.677 | 0.5
Cc1ccccc1-c1cc(C(=O)Nc2sc(C)c(C)c2C(N)=O)c2ccccc2n1
  3.5% | 2.2 | -1.3 | 1.6 | 4.4 | 0.749 | -0.3
O=C(CN1CCCN(S(=O)(=O)c2ccc(Br)s2)CC1)Nc1ccc(Cl)cc1
  -0.6% | -3.6 | 2.6 | -1.1 | 2.8 | 0.645 | 1.3

Screens: PubChem, several laboratories
